Screening data (PubChem)
Mtb MbtI inh: inhibitors of Mycobacterium tuberculosis siderophore enzyme MbtI; P9WFX0; purified MbtI enzyme, fluorescence intensity read-out; inhibition, %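 (about 17 µg/mL by stock and volumes)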; 100,000 tested, 0.89% active; AID 493033;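 active = above 50% in both replicates, above 80% if mildly self-fluorescent; inactive = the rest, strongly fluorescent compounds included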;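 note: 0% = mean of negative and 100% = mean of positive controls; one replicate is shown; some compounds called inactive have numbers as strong as hits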
Target sequence (P9WFX0 whole entry, looked up): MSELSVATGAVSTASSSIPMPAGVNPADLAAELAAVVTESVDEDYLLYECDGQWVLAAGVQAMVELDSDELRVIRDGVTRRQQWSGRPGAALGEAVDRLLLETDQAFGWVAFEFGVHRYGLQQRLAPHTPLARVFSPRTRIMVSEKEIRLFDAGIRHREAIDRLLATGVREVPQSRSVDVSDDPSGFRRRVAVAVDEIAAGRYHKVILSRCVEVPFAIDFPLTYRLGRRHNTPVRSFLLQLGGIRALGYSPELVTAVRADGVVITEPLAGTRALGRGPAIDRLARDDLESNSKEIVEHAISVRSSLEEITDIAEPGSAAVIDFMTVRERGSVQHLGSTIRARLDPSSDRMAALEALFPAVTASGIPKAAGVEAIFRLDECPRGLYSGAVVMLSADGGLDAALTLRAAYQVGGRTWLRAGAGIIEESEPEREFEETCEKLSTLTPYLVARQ
Polio RdRp inh: poliovirus RNA polymerase inhibition | poliovirus polymerase elongation, fluorescence polarization; stronger effect = lower value | 150,000 tested, 0.66% active | % elongation, % (compound at 16.7 µg/mL) | AID 588519; in the data active = % elongation below about 90%; note: some results filed as inactive read as strong as hits
Target sequence (P03300 1749-2209 limits assumed): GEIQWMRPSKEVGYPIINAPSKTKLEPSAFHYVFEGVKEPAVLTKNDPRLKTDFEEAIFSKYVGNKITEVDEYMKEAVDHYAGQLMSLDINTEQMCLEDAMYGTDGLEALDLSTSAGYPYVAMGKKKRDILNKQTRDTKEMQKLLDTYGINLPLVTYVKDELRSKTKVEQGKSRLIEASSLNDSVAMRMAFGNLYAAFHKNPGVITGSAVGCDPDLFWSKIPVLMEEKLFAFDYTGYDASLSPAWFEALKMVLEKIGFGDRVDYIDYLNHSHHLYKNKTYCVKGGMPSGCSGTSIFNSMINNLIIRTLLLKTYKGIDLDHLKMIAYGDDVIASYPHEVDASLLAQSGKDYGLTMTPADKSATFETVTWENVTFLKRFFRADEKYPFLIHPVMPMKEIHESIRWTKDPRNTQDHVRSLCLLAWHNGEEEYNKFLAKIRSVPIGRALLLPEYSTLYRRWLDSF
Mtb MenB inh: blocks the Mycobacterium tuberculosis MenB enzyme; MenB enzyme assay, absorbance read-out; some hits fall short of the stated cut; inhibition, %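 (about 12 µg/mL by stock and volumes)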; 100,000 tested, 0.43% active;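 active = mean of two replicates above 30%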;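 note: 0% = no compound and 100% = wells with inactive enzyme; the first replicate is given; strong numbers were not always called active; inactives centre near -10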
Polio RdRp inh intensity: further read-out of Polio RdRp inh, marked with its call; % elongation; measured here: total intensity read-out; formula for this scale not given here;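 total fluorescence in place of polarization; lower means less elongation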
The depositor's hits bear a star; & = joins results of further samples.

CCn1c(SCC(=O)c2ccccc2)nnc1-c1ccco1 was read as Mtb MbtI inh 3, Polio RdRp inh 101, Mtb MenB inh 12 and Polio RdRp inh intensity 101.
`CCOC(=O)c1c(C)noc1-c1csc(Nc2c(C)cc(C)cc2C)n1` gave Mtb MbtI inh -30, Polio RdRp inh 99, Mtb MenB inh -23 and Polio RdRp inh intensity 103.
Screening CCCCC(=O)N(c1ccc(OC)cc1)C1C=CS(=O)(=O)C1 (configuration not stated) returned Mtb MbtI inh -12, Polio RdRp inh 104, Mtb MenB inh -4 and Polio RdRp inh intensity 106.
COCCNC(=S)N1c2ccccc2CC1C (configuration not stated) was read as Mtb MbtI inh 64*, Polio RdRp inh 84*, Mtb MenB inh -33 and Polio RdRp inh intensity 92*.
CC1CCCC(NC(=O)CSc2nccn2C)C1C (configuration not stated) was read as Mtb MbtI inh -5, Polio RdRp inh 102 and Polio RdRp inh intensity 104.
Cc1cc(C)n(-c2nc3ccccc3nc2Sc2nc3ccccc3s2)n1 was read as Mtb MbtI inh -7, Polio RdRp inh 102, Mtb MenB inh -10 and Polio RdRp inh intensity 101.
CCc1c(C)nc2c(OC)cccc2c1Cl was read as Mtb MbtI inh -25, Polio RdRp inh 105, Mtb MenB inh -39 and Polio RdRp inh intensity 100.
For N#CCSc1nc2sc3c(c2c(=O)[nH]1)CCCC3 the results were Mtb MbtI inh 8, Polio RdRp inh 101, Mtb MenB inh -32 and Polio RdRp inh intensity 104.
CC1(C)CC(CCNCc2ccc3c(c2)OCO3)(Cc2ccccc2)CCO1 (configuration not stated) was read as Polio RdRp inh 107, Mtb MenB inh -13 and Polio RdRp inh intensity 108.
For CCCCP(=O)(O)c1ccccc1 the results were Mtb MbtI inh 2, Polio RdRp inh 100, Mtb MenB inh -29 and Polio RdRp inh intensity 102.
For CCCn1c(N)c(C(=O)CSC2=NC(C(C)C)C(=O)N2c2ccc(C)cc2)c(=O)n(C)c1=O (configuration not stated) the results were Mtb MbtI inh -2, Polio RdRp inh 104, Mtb MenB inh -19 and Polio RdRp inh intensity 99.
CN(C)C(CNC(=O)c1ccc2ccccc2n1)c1ccccc1 (configuration not stated) was read as Mtb MbtI inh -6, Polio RdRp inh 97, Mtb MenB inh 11 and Polio RdRp inh intensity 100.
CC12CC[C@H]3[C@@H](CCC4(O)C[C@H](O)CCC34/C=N/NC(N)=O)C1(O)CCC2C1=CC(=O)OC1 (some centres not stated) was read as Mtb MbtI inh 8, Polio RdRp inh 100, Mtb MenB inh 8 and Polio RdRp inh intensity 102.
O=C1CNC(=S)N1C1CCCCC1 was read as Mtb MbtI inh -10 and Mtb MenB inh -38.
O=S(=O)(c1ccccc1)c1ccc(Br)cc1 was read as Mtb MbtI inh 0, Polio RdRp inh 102, Mtb MenB inh 3 and Polio RdRp inh intensity 108.

Grouped by structure: the compounds so far with an aryl methoxy group
Screening CCCCC(=O)N(c1ccc(OC)cc1)C1C=CS(=O)(=O)C1 (configuration not stated) returned Mtb MbtI inh -12, Polio RdRp inh 104, Mtb MenB inh -4 and Polio RdRp inh intensity 106.
CCc1c(C)nc2c(OC)cccc2c1Cl was read as Mtb MbtI inh -25, Polio RdRp inh 105, Mtb MenB inh -39 and Polio RdRp inh intensity 100.

(continued)
For O=C1c2ccccc2NC(c2ccccc2)N1Cc1ccco1 (configuration not stated) the results were Mtb MbtI inh 122, Polio RdRp inh 104, Mtb MenB inh -20 and Polio RdRp inh intensity 100.
For O=C(O)CCc1ccc(Cl)cc1Cl the results were Mtb MbtI inh -8, Polio RdRp inh 95, Mtb MenB inh -3 and Polio RdRp inh intensity 104.
`CCN1C(=O)C(NC(C)=O)c2ccccc21` (configuration not stated) gave Mtb MbtI inh 1, Polio RdRp inh 103, Mtb MenB inh 11 and Polio RdRp inh intensity 101.
`O=C(Cc1noc2ccccc12)N1CCCCC1c1nc2ccccc2s1` (configuration not stated) gave Mtb MbtI inh -5, Polio RdRp inh 109, Mtb MenB inh -36 and Polio RdRp inh intensity 106.
`O=C(CC1C(=O)NC2CCCCC2N1C(=O)Nc1cccc(Cl)c1)Nc1ccc2c(c1)OCO2` (configuration not stated) gave Mtb MbtI inh -13, Polio RdRp inh 102, Mtb MenB inh -34 and Polio RdRp inh intensity 65.
O=C(O)/C=C/C(=O)NCc1cccc(Cl)c1 was read as Mtb MbtI inh 0, Polio RdRp inh 98, Mtb MenB inh 12 and Polio RdRp inh intensity 102.
For COc1ccc(NC(=O)CN(C)Cc2ccccc2)cc1 the results were Mtb MbtI inh -2, Polio RdRp inh 102, Mtb MenB inh 6 and Polio RdRp inh intensity 106.
Screening Cc1nn(-c2ccccc2)nc1CNC(=O)CC(C)(C)C returned Mtb MbtI inh 8, Polio RdRp inh 102, Mtb MenB inh 9 and Polio RdRp inh intensity 99.
Screening N#CC1=C(N)Oc2c(c(=O)oc3ccccc23)C1c1ccccc1 (configuration not stated) returned Mtb MbtI inh 0, Polio RdRp inh 104, Mtb MenB inh -26 and Polio RdRp inh intensity 102.
`CCCC(C)C(=O)N1CCN(c2ccc(F)cc2)CC1` (configuration not stated) gave Mtb MbtI inh -23, Polio RdRp inh 101, Mtb MenB inh -25 and Polio RdRp inh intensity 105.
Screening C#CCOC(=O)C1C2C=CC(C2)C1C(=O)O (configuration not stated) returned Mtb MbtI inh -7, Polio RdRp inh 101, Mtb MenB inh 1 and Polio RdRp inh intensity 100.
For COc1ccc([C@H]2[C@@H](C#N)[C@H](C#N)N3CCCN23)cc1 the results were Polio RdRp inh 104, Mtb MenB inh -1 and Polio RdRp inh intensity 108.
`Cc1ccc(NC(=O)CSc2nccn2-c2ccccc2)cc1` gave Mtb MbtI inh 14, Polio RdRp inh 100&99, Mtb MenB inh -3 and Polio RdRp inh intensity 79&101.
O=C(NCc1ccncc1)c1cn(-c2ccccc2)nc1-c1cccs1 was read as Mtb MbtI inh -51, Polio RdRp inh 98 and Polio RdRp inh intensity 96.
`CC(=O)NC1(c2ccccc2)CCN(Cc2nnnn2C(C)(C)C)CC1` gave Mtb MbtI inh -8, Polio RdRp inh 103, Mtb MenB inh -41 and Polio RdRp inh intensity 104.
`COc1ccc2oc(-c3ccccc3)cc(=O)c2c1` gave Mtb MbtI inh -26, Polio RdRp inh 104, Mtb MenB inh 9 and Polio RdRp inh intensity 113.
CN1C(=O)N(C)C2OC3OC4C(OC3OC21)N(C)C(=O)N4C (configuration not stated) was read as Mtb MbtI inh -6, Polio RdRp inh 102, Mtb MenB inh 40 and Polio RdRp inh intensity 101.
Screening CCCc1c(C(=O)Nc2cc(F)ccc2F)cnn1C returned Mtb MbtI inh -4, Polio RdRp inh 103, Mtb MenB inh -11 and Polio RdRp inh intensity 107.
COc1ccc(NC(=O)CC2CC3CCC2C3)cn1 (configuration not stated) was read as Mtb MbtI inh -11, Polio RdRp inh 98, Mtb MenB inh 7 and Polio RdRp inh intensity 112.
For S=c1[nH]nc(CCN2CCN(c3ccc(Cl)cc3)CC2)n1-c1ccccc1 the results were Mtb MbtI inh 9, Polio RdRp inh 99, Mtb MenB inh -36 and Polio RdRp inh intensity 99.
For CCOC(=O)c1c(-c2ccc(OC)cc2)oc2ccc(OC(=O)N3CCOCC3)cc12 the results were Mtb MbtI inh -19 and Mtb MenB inh -17.
For CCSc1ncnc2c1sc1nc3c(cc12)COC(C)(C)C3 the results were Mtb MbtI inh -8, Polio RdRp inh 104, Mtb MenB inh -20 and Polio RdRp inh intensity 109.
COc1ccccc1C(=O)COC(=O)c1ccccc1C(F)(F)F was read as Mtb MbtI inh -9, Polio RdRp inh 100 and Polio RdRp inh intensity 100.
For CC(CC(=O)N1CCCc2ccccc21)S(=O)(=O)c1ccc2c(c1)NC(=O)CO2 (configuration not stated) the results were Mtb MbtI inh 0, Polio RdRp inh 99, Mtb MenB inh 4 and Polio RdRp inh intensity 102.
O=C(/C=C/c1cc(Cl)c2c(c1)OCCCO2)Oc1ccc(-c2nnco2)cc1 was read as Mtb MbtI inh 10, Polio RdRp inh 95, Mtb MenB inh -2 and Polio RdRp inh intensity 101.
`O=C(O)CCC(=O)N1CCN(c2ncccc2C(F)(F)F)CC1` gave Mtb MbtI inh -8, Polio RdRp inh 108, Mtb MenB inh -22 and Polio RdRp inh intensity 110.
For c1ccc(N2CCN(c3ccccn3)CC2)cc1 the results were Mtb MbtI inh -28, Polio RdRp inh 97, Mtb MenB inh 4 and Polio RdRp inh intensity 103.
O=C(Cn1c(=O)oc2cc(Cl)ccc21)N1CCC2(CC1)OCCO2 was read as Mtb MbtI inh 10, Polio RdRp inh 100, Mtb MenB inh 6 and Polio RdRp inh intensity 96.
Cc1ccc(NC(=O)N2CCCC2C(=O)NCC2CCCCC2)cc1 (configuration not stated) was read as Mtb MbtI inh -8, Polio RdRp inh 101, Mtb MenB inh 0 and Polio RdRp inh intensity 102.
`COc1ccccc1CNC(=O)c1cn(C)c2ccc(S(=O)(=O)N3CCCCC3)cc2c1=O` gave Mtb MbtI inh -2, Polio RdRp inh 102, Mtb MenB inh -1 and Polio RdRp inh intensity 102.

Compounds listed so far with two or more sulfur atoms:
Cc1cc(C)n(-c2nc3ccccc3nc2Sc2nc3ccccc3s2)n1 was read as Mtb MbtI inh -7, Polio RdRp inh 102, Mtb MenB inh -10 and Polio RdRp inh intensity 101.
For N#CCSc1nc2sc3c(c2c(=O)[nH]1)CCCC3 the results were Mtb MbtI inh 8, Polio RdRp inh 101, Mtb MenB inh -32 and Polio RdRp inh intensity 104.
For CCSc1ncnc2c1sc1nc3c(cc12)COC(C)(C)C3 the results were Mtb MbtI inh -8, Polio RdRp inh 104, Mtb MenB inh -20 and Polio RdRp inh intensity 109.

Carrying on.
Screening CCN1C=C/C(=C\c2cc[n+](CC)c3ccccc23)c2ccccc21 returned Mtb MbtI inh 47, Polio RdRp inh 96, Mtb MenB inh -4 and Polio RdRp inh intensity 91.
For O=C(Nc1ncn[nH]1)/C(=C/c1ccc(Cl)cc1)c1ccc(F)cc1 the results were Mtb MbtI inh -7, Polio RdRp inh 103 and Polio RdRp inh intensity 108.
O=C1CC2(CC(=O)Oc3cc(O)ccc32)c2ccc(O)cc2O1 was read as Mtb MbtI inh -57, Polio RdRp inh 100, Mtb MenB inh 13 and Polio RdRp inh intensity 104.
For CC(=O)Oc1cccc(O)c1 the results were Mtb MbtI inh -1, Polio RdRp inh 98, Mtb MenB inh 2 and Polio RdRp inh intensity 101.
Screening O=C(CSc1nc2[nH]c(=O)[nH]c(=O)c2s1)c1ccccc1 returned Mtb MbtI inh 0, Polio RdRp inh 107, Mtb MenB inh -28 and Polio RdRp inh intensity 102.
Cc1cc(SC(C)C(=O)O)nc2ccccc12 (configuration not stated) was read as Mtb MbtI inh 13, Polio RdRp inh 100, Mtb MenB inh -1 and Polio RdRp inh intensity 104.
`O=C(c1cccc(S(=O)(=O)N2CCCC2)c1)N1CCN(c2ccccc2)CC1` gave Mtb MbtI inh -3, Polio RdRp inh 97, Mtb MenB inh -17 and Polio RdRp inh intensity 98.
For Cc1ccc(S(=O)(=O)Nc2ccccc2C(=O)NCc2ccco2)cc1 the results were Mtb MbtI inh -22, Polio RdRp inh 105, Mtb MenB inh -22 and Polio RdRp inh intensity 104.
CC1CN(c2nc3ccccc3nc2SCC(=O)NCc2ccccc2Cl)CC(C)O1 (configuration not stated) was read as Mtb MbtI inh 10, Polio RdRp inh 103, Mtb MenB inh -2 and Polio RdRp inh intensity 105.
For CN(C)S(=O)(=O)c1ccc2c(c1)C(=NNC(N)=O)c1cc(S(=O)(=O)N(C)C)ccc1-2 the results were Mtb MbtI inh -11, Polio RdRp inh 101, Mtb MenB inh 0 and Polio RdRp inh intensity 100.
For O=C(CNc1cc(Cl)ccc1N1CCOCC1)N1CCCc2ccccc21 the results were Mtb MbtI inh -8, Polio RdRp inh 98, Mtb MenB inh 2 and Polio RdRp inh intensity 103.
CCOC(=O)C1CCCN(C(=O)C2c3ccccc3Oc3ccccc32)C1 (configuration not stated) was read as Mtb MbtI inh 15, Polio RdRp inh 99, Mtb MenB inh -19 and Polio RdRp inh intensity 96.
Screening CCCCC(=O)Nc1c(-c2ccccc2)nc2ccccn12 returned Polio RdRp inh 106, Mtb MenB inh -2 and Polio RdRp inh intensity 111.
Screening O=C(O)/C=C/c1ccc2c(c1)OCCO2 returned Mtb MbtI inh 16 and Mtb MenB inh -4.
Screening O=C(O)CCn1c(=O)c2cc3c(=O)n(CCC(=O)O)c(=O)c3cc2c1=O returned Mtb MbtI inh -4, Polio RdRp inh 101, Mtb MenB inh -2 and Polio RdRp inh intensity 103.
For O=C(NCCN1CCNC1=O)c1cnn(-c2ccc(Cl)cc2)c1C(F)(F)F the results were Mtb MbtI inh -3, Polio RdRp inh 101, Mtb MenB inh 2 and Polio RdRp inh intensity 98.
Screening O=C1CCCC2=C1C(c1ccccc1)N=C(Nc1nc3ccccc3s1)N2 (configuration not stated) returned Mtb MbtI inh 64, Polio RdRp inh 102, Mtb MenB inh -6 and Polio RdRp inh intensity 102.
For COc1cccc(-c2nnn(CCc3nn[nH]n3)n2)c1 the results were Mtb MbtI inh -1, Polio RdRp inh 100, Mtb MenB inh 5 and Polio RdRp inh intensity 102.
Screening CCOc1ccc(CC(=O)O)cc1 returned Mtb MbtI inh -3, Polio RdRp inh 103 and Polio RdRp inh intensity 103.
CSCC(O)Cn1[nH]c(=O)ccc1=O (configuration not stated) was read as Mtb MbtI inh -8, Polio RdRp inh 103, Mtb MenB inh -3 and Polio RdRp inh intensity 106.
